Source: PubChem BioAssay
Cruzain inh Det: inhibitors of Trypanosoma cruzi cruzain with detergent | P25779 | purified cruzain, Z-FR-AMC fluorescence, 0.01% Triton | Potency, µM, for inactives: max response, negative = inhibition, hits mostly inhibitors | 200,000 tested, 0.43% active | AID 1478; active = well fitted curve in the direction sought with a large enough effect; inconclusive = small, poorly fitted or top-dose-only effect, or another doubt; inactive = no such curve, though single readings can be large; an effect the other way counts as inactive or inconclusive;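 also: plate controls were neutral wells for no effect and buffer without enzyme for full effect; nearly all actives have a fitted effect of over 40% in size; top concentration of the series not given in the record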
Target sequence (P25779 123-467 limits assumed): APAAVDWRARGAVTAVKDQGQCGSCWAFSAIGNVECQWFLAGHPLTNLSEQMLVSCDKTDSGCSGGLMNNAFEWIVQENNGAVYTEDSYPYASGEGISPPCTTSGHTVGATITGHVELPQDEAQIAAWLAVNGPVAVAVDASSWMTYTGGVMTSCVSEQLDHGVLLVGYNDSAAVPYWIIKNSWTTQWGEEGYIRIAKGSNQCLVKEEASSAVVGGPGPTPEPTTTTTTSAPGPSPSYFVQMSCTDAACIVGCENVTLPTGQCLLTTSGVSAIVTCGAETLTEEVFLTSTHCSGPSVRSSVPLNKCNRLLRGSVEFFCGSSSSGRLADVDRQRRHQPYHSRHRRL
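Steps: dispense cruzain (1.5 nM final) in acetate buffer pH 5.5 with DTT and 0.01% Triton X-100; pin-transfer compounds; incubate 15 min RT; add Z-FR-AMC (2 uM final); read fluorescence every 30 s, using the 60 s intensity change.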
RE007 growth inh: less growth of the S. pombe RE007 Vpr strain. S. pombe RE007 Vpr strain, BacTiter-Glo ATP luminescence, 24 h; control for the full effect not named in the record. Potency, µM (highest dose often 92.2 µM), for inactives: at the top dose activity change, negative = less growth. 360,000 tested, 0.21% active; active = well fitted falling curve with a large enough effect; inconclusive = small, poorly fitted or top-dose-only effect; inactive = no such curve, though single readings can be large or run the other way;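 also: % is scaled to controls: 0 for no effect and ±100 for the full control effect; nearly all actives have a fitted effect of over 50% in size; the assay follows cell death caused by Vpr and the record does not say whether a fall means rescue or toxicity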
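Fission yeast RE007 carrying one integrated HIV-1 vpr copy, seeded at OD 0.01 in PMG+AL medium with 23 nL pinned compound. Grown 24 h at 30 degrees; viability read by BacTiter-Glo luminescence after 5 min.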
NS1 function inh: inhibitors of influenza NS1 protein function; S. cerevisiae slowed by influenza A NS1, growth recovery by OD600; 270,000 tested, 0.4% active; Potency, µM (top dose mostly 46.1 µM), without a hit: at the highest dose activity, positive = more growth; AID 2326; also: actives are rising curves; nearly all actives have a fitted effect of over 50% in size
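A cell-based growth assay was used: compounds that relieve NS1-induced slow growth of budding yeast raise OD600. Assay medium was yeast nitrogen base with ammonium sulphate and -URA supplement, pH 6.0, with 2% galactose.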
SARS PLP yeast: SARS-CoV PLP inhibition in yeast; 330,000 tested, 0.19% active; Potency, µM (doses to about 32.9 µM), for inactives: at the highest dose activity, positive = growth rescue; AID 485353; S. cerevisiae expressing SARS-CoV PLpro, growth rescue; control for the full effect not named in the record; also: 0% is about no effect; nearly all actives have a fitted effect of over 55% in size; growth read by luminescence after 48 h
Cruzain inh noDet: inhibitors of Trypanosoma cruzi cruzain without detergent. P25779. purified cruzain, Z-FR-AMC fluorescence, no detergent. Potency, µM, for inactives: max response, negative = inhibition, most hits filed as inhibitors. 200,000 tested, 2.3% active; active = well fitted curve in the direction sought with a large enough effect; inconclusive = small, poorly fitted or top-dose-only effect, or another doubt; inactive = no such curve, though single readings can be large; an effect the other way counts as inactive or inconclusive;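 also: plate controls were enzyme without inhibitor for no effect and buffer without enzyme for full effect; nearly all actives have a fitted effect of over 40% in size; top concentration of the series not given in the record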
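Detergent-free condition (0.00005% Triton X-100) in acetate buffer pH 5.5 with DTT. 1.5 nM enzyme and compound were pre-mixed 15 min, then 2 uM Z-FR-AMC substrate added; reaction progress from fluorescence change between first and third reads (60 s).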
Marburg entry inh: blocks Marburg virus binding to or entry into cells. Marburg virus pseudotyped entry inhibition, cell reporter; control for the full effect not named in the record; about a third of the inactives were read at about 46 µM. Potency, µM (doses to about 37.8 µM), without a hit: at the highest dose activity change, negative = inhibition, hits mostly inhibitors. 300,000 tested, 1.8% active; active = well fitted inhibition curve with a large enough effect; inconclusive = small, poorly fitted or top-dose-only effect, or effect the other way; inactive = flat fitted curve, though single readings scatter; tested in HEK293 cells; about a fifth of its hits are not listed in these tables; also: % is scaled to controls: 0 for no effect and ±100 for the full control effect; luciferase read-out
StopGo reporter: FMDV 2A StopGo reporter, luciferase signal; human cells with a luciferase reporter of 2A StopGo recoding; control for the full effect not named in the record; Potency, µM (titrated, usually from 57.9 µM), for inactives: top-dose signal change, negative = less light; 410,000 tested, 1.2% active; AID 1159524; active = well fitted falling curve with a large enough effect; inconclusive = small, poorly fitted or top-dose-only effect; inactive = no such curve, though single readings can be large or run the other way; tested in HEK293T cells; also: % is scaled to controls: 0 for no effect and ±100 for the full control effect; nearly all actives have a fitted effect of over 45% in size; luciferase light after 4 h
LASV entry inh: inhibitors of Lassa virus binding or cell entry | Potency, µM (doses to about 37.9 µM), for the others: at the highest dose activity change, negative = inhibition, most hits filed as inhibitors | 300,000 tested, 1.2% active | Lassa virus pseudotype entry inhibition, cell reporter; control for the full effect not named in the record; active means well fitted inhibition curve with a large enough effect; inconclusive means small, poorly fitted or top-dose-only effect, or effect the other way; inactive means flat fitted curve, though single readings scatter; tested in HEK293 cells; also: % is scaled to controls: 0 for no effect and ±100 for the full control effect; nearly all actives have a fitted effect of over 50% in size; luciferase read-out
The depositor's hits bear a star; ? = inconclusive; . = no result given; [ ] = dose if it differs, or a comment. Unless noted, calls follow the shape of the dose curve; as a rule, active means well fitted rising curve with a large enough effect; inconclusive means small, poorly fitted or top-dose-only effect; inactive means no such curve, though single readings can be large or run the other way. Potency is read from the fitted curve at half-maximal effect.

Results follow in this order: Cruzain inh Det, RE007 growth inh, NS1 function inh, SARS PLP yeast, Cruzain inh noDet, Marburg entry inh, StopGo reporter, LASV entry inh
COCCNC(=O)CN1C2CCC1CC(O)(c1cccnc1)C2 (configuration not stated)
  ., -3%, 2%, -2%, ., -2%, -3%, 8%
Cc1ccccc1OCc1nnc(SCC(=O)N2c3ccccc3Sc3ccc(Cl)cc32)o1
  3.8%, -28%, 21%, -4%, 13µM*, ?, -8%, ?
O=C(Cc1ccc(Cl)cc1Cl)NCc1cccnc1
  ., 6%, 2%, -4%, ., 16%[46.1 µM], -10%, 7%
COc1ccccc1C(=O)NCCC(=O)N1CC(C)OC(C)C1 (configuration not stated)
  ., -14%, ., ., ., 1%[46.1 µM], -11%, -3%
COc1ccc(Cn2ccnc2SCC(=O)Nc2cc(C(F)(F)F)ccc2Cl)cc1
  -11%, ., ., ., 5%, ., -3%, -8%[46.1 µM]
CCOC(=O)NC(CC(=O)O)c1ccc(OC)c(OC)c1 (configuration not stated)
  5.3%, -9%, -2%, 5%, -7%, -2%, 10%, ?
COCCn1c(-c2ccco2)nc2nc3ccccc3nc21
  28µM*, 9%, -13%, 0%, 8%, 2%, 13%, -10%
Cc1ccc(Cl)cc1N1CCN(S(=O)(=O)c2c(C)noc2C)CC1
  ., 0%, -9%, -9%, ., ., ?, .
CCCn1nc(NS(=O)(=O)c2ccccc2)c2cc3ccccc3nc21
  -6.5%, 4%, -1%, 0%, -16%, 12%, 27%, 0%
Cc1sc2ncnc(N3CCC(C(=O)NNC(=O)c4ccc(Cl)cc4)CC3)c2c1C
  ., -12%, ., 0%, ., -27%, 25µM*, 13%
CC(C)n1c(=S)[nH]c2ccccc21
  3.4%, 6%, 4%, 21%, 2%, 9%, -14%, -11%
CC1(C)Cc2ccccc2C(=C(C#N)C#N)N1
  -4.1%, 0%, 3%, -14%, -1%, 10%, -14%, 6%
O=C(Nc1nccs1)c1ccc(Cl)nc1
  ., -5%, -1%, -4%, ., ., 27%, .
COc1ccc(NC(=O)Cn2c(=O)n(CCCC(=O)NCCc3ccc(C)cc3)c(=O)c3ccccc32)cc1Cl
  -4.8%, ., ., ., -5%, -5%[46.1 µM], -11%, 3%[46.1 µM]
O=C1NC(=O)C(Sc2ccccc2[N+](=O)[O-])C(=O)N1
  ., ?, -4%, -12%, ., 5%[46.1 µM], 6%, 2%[46.1 µM]
Cc1ccc(OCC(=O)Nc2ccc(-c3nc4ccc(C)cc4o3)cc2)cc1
  1.0%, ., ., ., 25µM*, ?, 27%, ?
CCCc1nc(SCC(=O)Nc2cc(C)on2)c2ccccc2n1
  1.4%, -7%, -39%, 4%, 6%, ?, ?, ?
CN1CCN(C(=O)Cn2ncc3c4ccccc4n(Cc4ccc(Cl)cc4)c3c2=O)CC1
  -8.1%, ., ., ., 10%, ?, -17%, -2%[46.1 µM]
O=C(CNC(=O)c1cccs1)N=Nc1c(O)[nH]c2ccc([N+](=O)[O-])cc12
  ., -6%, 1%, 5%, ., ., -14%, .
O=C(Cn1ncc2c3ccccc3n(Cc3ccccc3)c2c1=O)NCCCN1CCOCC1
  ., 10%, 14%, 5%, ., ., -7%, .
O=C(CSc1oc(-c2cccs2)nc1S(=O)(=O)c1ccc(F)cc1)NCC1CCCO1 (configuration not stated)
  -2.7%, -11%, -6%, 6%, -5%, ., -19%, .
CN(CC(=O)Nc1cccc(F)c1)C(=O)c1ccc2c(c1)S(=O)(=O)N=C1CCCCCN12
  ., 19%, ., 10%, ., ?, -4%, 3%
CCCCC[C@H](O)/C=C/[C@H]1CCC(=O)[C@@H]1CCCCCCC(=O)N1CCCCC1CO (some centres not stated)
  ., -12%, 8%, -2%, ., ?, ?, ?
COc1ccc(CC(=O)NNS(=O)(=O)c2ccccc2[N+](=O)[O-])cc1OC
  ., -9%, 1%, -1%, ., 3%[46.1 µM], -4%, 28%
CCOC(=O)c1c(NC(C)=O)c2c3c(sc2n1Cc1nc(-c2ccccc2OCC)oc1C)CCCC3
  0.6%, ., ., ., 5%, -2%[46.1 µM], 3%, .
COc1ccc(CCNC(=O)C/C(C)=N/NC(=O)Cc2cccc3ccccc23)cc1OC
  ., -10%, -7%, 1%, ., ?, -14%, 21%
O=C(CCN1C(=O)c2ccncc2C1=O)Nc1cc(F)ccc1F
  ., -1%, ., -3%, ., 7%[46.1 µM], 2%, -3%[46.1 µM]
COc1ccccc1N(C)S(=O)(=O)c1ccc(C(=O)NCC(C)C)cc1
  4.2%, -3%, -15%, -1%, -9%, -12%, -5%, ?
COCCC(=O)N1CCC(Oc2ccc(C(=O)NCCCC3CCCC3)cc2)CC1
  ., -9%, -21%, 1%, ., -15%, -26%, -26%
Cc1ncc(CN2CCCC(C(=O)Nc3ccc(-c4cccc(F)c4)cc3)C2)n1C (configuration not stated)
  ., -18%, -13%, -9%, ., ?, ?, ?
Nc1nc2ccc(C(=O)N3CCCCC3)cc2s1
  ., 1%, 3%, -1%, ., -9%[46.1 µM], 40%[activator], -5%
COCC(=O)N(Cc1ccco1)c1nnc(C2CCOC2)s1 (configuration not stated)
  1.2%, -1%, -16%, 4%, -28%, -12%[46.1 µM], 16%, 22%
Cc1c(C)n(Cc2ccccc2)c2ncnc(NN)c12
  ., 3%, -4%, -4%, ., ., ?, .
O=C(CN1CCCC1)Nc1cccc(Cl)c1Cl
  ., -13%, 1%, 2%, ., ., 25%, .
O=C(Nc1cccnc1)c1c(O)c2c(n(Cc3ccccc3)c1=O)CCCC2
  -0.9%, 20%, -174%, -4%, -19%, ?, -15%, -15%
O=C(NC1=NCCS1)C12CC3CC(CC(C3)C1)C2
  ., ?, -4%, -2%, ., 7%[46.1 µM], -10%, 19%[46.1 µM]
CCNC(=S)N/N=C(\C)c1cccc(C(F)(F)F)c1
  ., -11%, ., ?, ., 6%[46.1 µM], 5%, .
COc1ccc(OCc2nnc3n2N=C(c2ccc(Br)cc2)CS3)cc1
  -12%, -25%, -13%, 1%, -4%, ., -24%, .
Cc1nc2c(Cl)c(C)nn2c2c1CCC2
  ., 1%, ., 0%, ., -2%[46.1 µM], 5%, -4%[46.1 µM]
CCOC(=O)c1scc(-c2ccc(C)cc2)c1S(=O)(=O)Nc1cc(OC)ccc1OC
  0.7%, ., ., ., -8%, ., -3%, ?
C=CCNC(=O)c1ccccc1NC(=O)c1ccccc1SC
  ., 6%, -3%, -1%, ., 0%[46.1 µM], ?, -41%
Cc1nn(-c2ccccc2)c(Cl)c1/C=N/Nc1nnc(C)c(=O)[nH]1
  ., -4%, 2%, 1%, ., ?, 46%[activator], -17%
Cn1c(=O)n(C)c2cc3[nH]cnc3cc21
  ., 10%, 10%, -1%, ., -3%, 6%, ?
COc1ccc(CC(=O)OCC(=O)Nc2ccc(Cl)c(S(=O)(=O)N(C)C)c2)cc1
  ., -6%, -3%, 0%, ., ., -6%, .
COc1ccc(CCNC(=O)COc2cc(O)c3c(c2)OC(C)(C)CC3=O)cc1
  ., 6%, -30%, -18%, ., ., -16%, .
COC(=O)c1ccc(C(=S)N2CCCCC2)cc1
  ., 7%, -1%, 0%, ., -3%[46.1 µM], -8%, 3%[46.1 µM]
Cn1sc(=O)c2cc(S(=O)(=O)NC3CC3)ccc21
  ., -3%, ?, 1%, ., -17%[46.1 µM], -13%, ?
CNC(=O)C1CCC(Cn2c(=O)c3sccc3n(CC(=O)NCc3ccccc3)c2=O)CC1 (configuration not stated)
  1.6%, ., ., ., 9%, ., -7%, -2%[46.1 µM]
COc1cccc(CNC(=O)CSc2nc(=O)n(Cc3ccncc3)c3c2CCC3)c1
  ., -8%, ., ., ., 1%, -12%, -16%
CC1(C)CC(NC(=O)c2sc3cc(Cl)ccc3c2Cl)CC(C)(C)N1
  ., -14%, 3%, 0%, ., ?, -27%, 11%
CC1=CC(C)(C)N2C(=O)C3(C(C#N)=C(N)Oc4cc(C)oc(=O)c43)c3cc(C)cc1c32 (configuration not stated)
  ., 0%[3.69 µM], ., ., ., -26%, -24%, -12%
O=C(Nc1ccc(Cl)cc1)N1CC=CCC1
  3.7%, -9%, -35%, -9%, -1%, ?, 37%[activator], 26%
CCCCN(CCO)CCCC
  3.4%, 8%, ., -21%, -1%, ., -24%, .
O=c1c2ccccc2nc(-c2ccccc2)n1-c1ccc(O)cc1
  ., -13%, -1%, 0%, ., -2%[46.1 µM], 21%, ?
Cc1ccc(N(c2ncnc(N)c2[N+](=O)[O-])C2CCCCC2)cc1
  2.8%, 10%, 20%, 3%, -6%, 1%, -14%, 0%
N#Cc1ccccc1CSc1nc(N)cc(N)n1
  ., 0%, 21%, 2%, ., 24%, -1%, 13%
Cc1cc(NC(=O)CCC(=O)N(Cc2ccco2)C(C(=O)NC2CCCC2)c2ccccc2F)no1 (configuration not stated)
  ., -11%, 2%, 1%, ., -20%[46.1 µM], 1%, ?
Cc1nc2c(-c3ccccc3)c(C)nn2c(N)c1-c1ccccc1
  -12%, -17%, -20%, -65%, ?, ?, 11%, ?
COCCN1CC(C(=O)N2CCC(Oc3ccccc3OC)CC2)CCC1=O (configuration not stated)
  ., -22%, 1%, -2%, ., -1%, -11%, ?
O=C(CCCC(=O)Nc1cccc(Br)c1)N/N=C/c1cc([N+](=O)[O-])ccc1O
  ., 4%, -3%, 5%, ., ?, -11%, -10%[46.1 µM]

Additional records follow.
Results follow in this order: Cruzain inh Det, RE007 growth inh, NS1 function inh, SARS PLP yeast, Cruzain inh noDet, Marburg entry inh, StopGo reporter, LASV entry inh
CC(=O)Nc1ccc(C(=O)OCC(=O)c2ccc(F)cc2)cc1
  0.4%, 8%, 25%, 8%, 3%, -16%, 13%, -6%
CCC1(C)COC(C)(CC(=O)NNC(=O)Nc2ccccc2)OC1 (configuration not stated)
  ., -13%, -11%, 0%, ., -16%[46.1 µM], 4%, 13%
O=c1nc(N2CCCCCC2)nc(N2CCCCCC2)[nH]1
  5.1%, 2%, 10%, -1%, 6%, -18%, 0%, -4%
O=C(NC1CC1)c1cc(Cl)nc2ccccc12
  ., 32%, ., 8%, ., -7%[46.1 µM], -16%, -2%
